# Bioassay records (PubChem)
# YopH inh: YopH tyrosine phosphatase inhibitors, primary screen, biochemical, fluorescence Ex485/Em525; YopH tyrosine phosphatase [Yersinia enterocolitica]; inhibition, %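 (about 10 µM by stock and volumes)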; hit rate 0.16% among 140,000; AID 898, 2007;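 active means inhibition of 50% or more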;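 further: controls were vehicle for no effect and minimum signal wells for full effect; inactives centre near -20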
# Mtb betalactam: beta-lactam sensitization of Mtb H37Rv, H37Rv; M. tuberculosis H37Rv growth with meropenem, percent inhibition; hits of this screen are not shown here; inhibition, % at 25 µM; hit rate 0.27% among 330,000; AID 434955, 2010;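 active means about 74% or more and at least 40 points above the plate without the antibiotic, then above 30% in a dose series; inconclusive means first-round hits that could not be retested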;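 further: growth measured after seven days incubation then overnight dye step; 0% = bacteria only wells and 100% = bacteria with antibiotic; twin plates without the antibiotic show which effects depend on it; some results filed as inactive read as strong as hits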
# Arbovirus inh: antivirals against arbovirus infection, primary screen, cell-based, full library, 10K replicate subset; arbovirus infection cell-based antiviral screen; inhibition, % at 10 µM; hit rate 0.37% among 200,000; AID 1251, 2008;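 active means inhibition from about 30%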;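 further: bluetongue infection of BSR cells; cell survival read as ATP light after 72 h; 0% = infected wells without compound and 100% = uninfected wells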
# RecA intein inh: Mtb RecA intein splicing inhibitors, primary screen, biochemical, fluorescence, HTS; Protein RecA (Mycobacterium tuberculosis (strain ATCC 25618 / H37Rv)), P9WHJ3; cell-free RecA intein splicing; inhibition, %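 (about 9 µM by stock and volumes)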; hit rate 0.75% among 290,000; AID 2221, 2009; in the data active means inhibition above about 30%; inconclusive means no clear call, values can overlap the other calls;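 further: 0% = vehicle wells and 100% = reference inhibitor control wells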
# Target sequence (P9WHJ3 whole entry, looked up): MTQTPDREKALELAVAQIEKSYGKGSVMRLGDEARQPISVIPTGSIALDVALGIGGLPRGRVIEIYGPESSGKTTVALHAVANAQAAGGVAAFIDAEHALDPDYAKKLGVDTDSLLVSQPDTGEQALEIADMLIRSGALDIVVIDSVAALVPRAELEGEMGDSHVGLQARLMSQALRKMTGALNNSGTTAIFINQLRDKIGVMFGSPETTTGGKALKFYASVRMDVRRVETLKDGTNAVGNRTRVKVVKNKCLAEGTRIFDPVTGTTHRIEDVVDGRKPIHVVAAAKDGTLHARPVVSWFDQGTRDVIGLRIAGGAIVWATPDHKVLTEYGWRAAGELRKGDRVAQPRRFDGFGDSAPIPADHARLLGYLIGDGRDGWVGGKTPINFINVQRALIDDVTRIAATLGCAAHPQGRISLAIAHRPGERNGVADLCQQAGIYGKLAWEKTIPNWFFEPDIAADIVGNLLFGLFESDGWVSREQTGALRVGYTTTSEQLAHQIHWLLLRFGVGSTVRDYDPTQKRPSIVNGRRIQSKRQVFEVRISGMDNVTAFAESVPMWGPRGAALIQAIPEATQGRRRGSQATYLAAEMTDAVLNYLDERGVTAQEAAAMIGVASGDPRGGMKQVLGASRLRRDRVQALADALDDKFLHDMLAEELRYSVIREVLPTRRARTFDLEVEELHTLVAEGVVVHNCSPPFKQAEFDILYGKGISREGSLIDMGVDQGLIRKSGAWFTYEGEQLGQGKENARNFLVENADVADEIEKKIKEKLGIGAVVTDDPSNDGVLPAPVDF
# Mtb H37Rv: M. tuberculosis H37Rv growth inhibitors, H37Rv strain (AID 1626) | hit rate 0.95% among 220,000 | inhibition, % at 10 µM; hits with a dose series show IC50 in µM | M. tuberculosis H37Rv growth inhibition; higher % means a stronger effect;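 active means confirmed in a dose series; inconclusive means inhibition above 80% but not taken into the dose series; inactive means below 80% or under 30% at every dose of the series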;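 further: bacteria incubated seven days before Alamar blue readout; 0% = bacteria only wells and 100% = bacteria with antibiotic wells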
# Arbovirus inh repeat: further read-out of Arbovirus inh, marked with its call; inhibition, %; measured here: 10K subset replicate screen; many hits read low in the repeat;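 first of two repeat runs on a subset; 0% = infected and 100% = uninfected wells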
# The depositor's hits bear a star; ? = inconclusive; nt = not tested or not shown. The list is partial; count on the stated rates, not on these rows.
SMILES,YopH inh,Mtb betalactam,Arbovirus inh,RecA intein inh,Mtb H37Rv,others
Cc1c(/C=N/Nc2nc3ccccc3[nH]2)c2ccccc2n1C,nt,97.0,nt,38.9*,?,
COC(=O)C1=C(C)N(Cc2ccccc2)C(=NCc2ccc(OC)cc2)N[C@H]1c1cccc(F)c1,nt,61.3,nt,6.5,nt,
CC(SC1=NCCN1S(=O)(=O)c1ccc(F)cc1)c1ccccc1 (centres undefined),nt,-4.0,nt,9.4,nt,
N#Cc1ccc(C(=O)N2CCN(S(=O)(=O)c3ccc(Br)s3)CC2)cc1,nt,-1.4,5.8,1.4,-8.4%,
COc1ccccc1/C=N/N1CCN(c2ccc(Cl)cc2)CC1,nt,6.0,nt,0.5,nt,
COc1ccc(CNc2ncnc3c2[nH]c2cc(OC)c(OC)cc23)cc1,nt,96.5,nt,-1.1,7.3%,
O=P(O)(Cc1ccccc1)Cc1ccccc1,nt,1.7,nt,-2.0,nt,
S=C(NCc1ccccn1)Nc1ccc(Cl)cc1Cl,-5.0,-6.5,-4.2,-0.6,0.6%,
CCn1cc(C2C(C(=O)Nc3ccc(Br)cn3)=C(C)NC3=C2C(=O)CCC3)c(C)n1 (centres undefined),-18.3,-11.8,5.4,3.5,-10.7%,
Fc1ccc(C2CC(c3ccco3)n3ncnc3N2)cc1 (centres undefined),1.5,?,6.1,0.3,-3.9%,
COc1ccc(CNc2nc(S(=O)(=O)c3ccccc3)c(Cl)s2)cc1OC,-16.4,-7.3,14.0,2.6,2.8%,
CCN1CCN(c2nc(-c3ccccc3)nc3ccccc23)CC1,-18.6,4.2,-36.4,-2.3,4.8%,

# Arranged by molecular weight (ascending): part of the list above.
SMILES,YopH inh,Mtb betalactam,Arbovirus inh,RecA intein inh,Mtb H37Rv,others
Fc1ccc(C2CC(c3ccco3)n3ncnc3N2)cc1 (centres undefined),1.5,?,6.1,0.3,-3.9%,
Cc1c(/C=N/Nc2nc3ccccc3[nH]2)c2ccccc2n1C,nt,97.0,nt,38.9*,?,
CCN1CCN(c2nc(-c3ccccc3)nc3ccccc23)CC1,-18.6,4.2,-36.4,-2.3,4.8%,
CC(SC1=NCCN1S(=O)(=O)c1ccc(F)cc1)c1ccccc1 (centres undefined),nt,-4.0,nt,9.4,nt,
N#Cc1ccc(C(=O)N2CCN(S(=O)(=O)c3ccc(Br)s3)CC2)cc1,nt,-1.4,5.8,1.4,-8.4%,
CCn1cc(C2C(C(=O)Nc3ccc(Br)cn3)=C(C)NC3=C2C(=O)CCC3)c(C)n1 (centres undefined),-18.3,-11.8,5.4,3.5,-10.7%,

# Additional results:
SMILES,YopH inh,Mtb betalactam,Arbovirus inh,RecA intein inh,Mtb H37Rv,others
COc1ccc(CNc2nc3nc4c(c(=O)n3[nH]2)CCC4)cc1,-140.3,98.8,1.9,-2.0,1.09µM*,
Cc1csc(SC(C)C(=O)NC2CCCCC2C)n1 (centres undefined),nt,1.4,nt,-0.8,nt,
CCOC(=O)C1=NN(c2ccccc2C)C2=NC(C)=C(C(=O)OC)C(c3cccc(OC)c3)N12 (centres undefined),-27.3,5.2,2.2,13.4,-3.7%,
CC1(C)C(=O)OC(c2ccccc2)C2(CCCC2)C1=O (centres undefined),-19.8,-2.3,-0.2,nt,2.6%,
O=[N+]([O-])c1ccc(S(=O)(=O)NNC(=S)NCCc2ccccc2)cc1,nt,-18.6,nt,2.5,nt,
O=C(O)C1CC(=O)N(CCOc2ccccc2)C1 (centres undefined),-112.7,-6.7,4.9,0.1,-3.0%,Arbovirus inh repeat=1.5
COc1ccc(NC(=O)CCN2C(=O)c3ccccc3S2(=O)=O)c(OC)c1,nt,-6.5,2.9,3.3,nt,
CC(=O)Nc1cccc(NC(=O)C(=O)NCC(c2ccco2)N2CCc3ccccc32)c1 (centres undefined),nt,-11.4,nt,2.7,nt,
COc1ccc(Cc2noc(CN(C)CC(O)c3ccccc3)n2)cc1OC (centres undefined),nt,-8.8,-0.7,-0.7,5.8%,
CCCOC(=O)c1ccc(Oc2coc3c(CN(CC)CC)c(O)ccc3c2=O)cc1,-2.5,-7.3,3.4,-11.3,2.4%,
C=CCn1c(=NC(=O)CC)n(C)c2ccccc21,-13.4,-4.7,5.4,-0.2,0.2%,
COC(=O)CN(c1ccc(C(C)C)cc1)S(=O)(=O)c1c(C)[nH]c(=O)[nH]c1=O,-65.3,-2.6,2.5,1.0,-7.3%,Arbovirus inh repeat=-1.0

# Next section (2 carried over from the part before).
SMILES,YopH inh,Mtb betalactam,Arbovirus inh,RecA intein inh,Mtb H37Rv,others
C=CCn1c(=NC(=O)CC)n(C)c2ccccc21,-13.4,-4.7,5.4,-0.2,0.2%,
COC(=O)CN(c1ccc(C(C)C)cc1)S(=O)(=O)c1c(C)[nH]c(=O)[nH]c1=O,-65.3,-2.6,2.5,1.0,-7.3%,Arbovirus inh repeat=-1.0
CCO[C@H]1OC(C(=O)Nc2ccccc2)=C[C@@H](C)[C@@H]1CCCO,nt,0.3,1.6,-1.7,-14.6%,
CCCn1c(SCC(=O)Nc2nnc(C(C)C)s2)nc2c1c(=O)n(C)c(=O)n2C,-29.0,-0.1,13.3,1.4,0.5%,
COc1ccc2[nH]c(=O)c(CN(Cc3ccccc3)C(=S)NCC3CCCO3)cc2c1 (centres undefined),nt,0.8,-4.0,3.0,-4.9%,
CC1(C)C2CCC1(CS(=O)(=O)NCc1ccc(C(=O)O)cc1)C(=O)C2 (centres undefined),5.2,-2.0,6.6,-1.6,2.7%,
CCNC(=O)NC1(C(=O)Nc2ccc3c(c2)OCCO3)CCCCC1,-3.5,1.4,3.9,nt,8.0%,
CCN1/C(=C2\SC(=S)N(Cc3ccccc3)C2=O)Sc2ccccc21,-12.9,13.9,-4.0,0.2,5.9%,
O=C(CCC(=O)N1CCCC1)Nc1ccc([N+](=O)[O-])cc1,nt,-1.6,-1.9,-2.5,2.2%,
Cc1ccc(-c2cc(C(=O)Nc3ccccn3)c3ccccc3n2)o1,nt,-2.7,-1.3,-4.2,4.6%,
O=C(O)c1cc(-c2ccc(/C=N/NC(=S)Nc3ccccc3)o2)ccc1Cl,nt,3.2,7.8,-11.8,4.1%,
CCOC(=O)c1[nH]c(C)c(CN(CCc2ccccc2)C(=O)CCC(=O)O)c1C,-38.1,-1.6,2.7,-8.8,nt,
COc1cc(OC)c(OC)cc1/C=C(\C#N)C(=O)NCc1cccs1,nt,-7.4,nt,-0.3,nt,
O=C(NCc1ccc2c(c1)OCO2)c1cc2ncc(Br)cn2n1,-11.7,-13.3,6.9,nt,8.7%,
COCCn1c(SCC(=O)Nc2cccc(C)n2)nnc1-c1ccco1,nt,-6.1,11.5,-2.9,-10.6%,
COc1ccc(CCNC(=O)CSc2nc3sc(C(=O)O)c(C)c3c(=O)[nH]2)cc1OC,nt,-3.3,nt,-1.0,nt,
CCOc1ccc(C(=O)NC(=S)Nc2ccccc2OC)cc1[N+](=O)[O-],-34.1,2.4,9.9,0.4,5.6%,
CCN(CC)C(=O)C1CCCN(Cc2ccccc2C(F)(F)F)C1 (centres undefined),-26.6,7.1,4.1,0.8,-6.9%,
COc1ccc(Nc2nc(N3CCCC3)nc3ccccc23)c(OC)c1,-3.6,40.5,-46.4,0.4,16.9%,
CC(=O)Nc1ccc(Nc2nc(-c3ccccc3)nc3ccccc23)cc1,nt,4.6,-4.2,0.1,7.8%,
COc1ccc(NC(=O)CCCN2C(=O)/C(=C\c3ccco3)SC2=S)cc1,-25.2,-1.0,3.2,3.6,?,
CCCCN(CCCNC(=O)c1ccc(CS(=O)(=O)c2ccc(OC)cc2)o1)Cc1ccccc1,nt,1.9,nt,-2.2,nt,
Cc1cccc(C(=O)Nc2ccc(O)cc2)c1,-28.5,-2.1,-11.0,-2.2,-6.1%,
Cc1ccc(-n2ncc3c(NCc4cccnc4)ncnc32)cc1C,nt,53.1,nt,4.4,nt,
O=C(N/N=C/c1cccnc1)c1ccc(Cl)c(Cl)c1,nt,-3.9,nt,-0.4,nt,
COC(=O)c1cccc(C23CC4(C2)[C@H](CN(Cc2ccc(C(F)(F)F)cc2)[C@@H]4c2ccccc2)C3c2ccc(C(F)(F)F)cc2)c1 (some centres undefined),nt,-8.5,nt,2.6,-2.5%,
COc1ccc(CCC(C)NCCc2ccccc2)cc1 (centres undefined),1.5,-4.8,15.1,-3.2,10.0%,
